# HPGD block – inhibitors of human 15-hydroxyprostaglandin dehydrogenase (HPGD); P15428; purified HPGD, NADH fluorescence kinetic, PGE2 substrate; AID 894; 150,000 tested, 4.3% active; Potency, µM, for the others: top-dose activity change, negative = inhibition, actives largely listed as inhibitors; active = well fitted inhibition curve with a large enough effect (not every such curve was filed as active); inconclusive = small, poorly fitted or top-dose-only effect, or another doubt; inactive = no such curve, though single readings can be large or run the other way;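 note: top concentration of the series not given in the record; plate controls included wells without enzyme; inactives centre near -10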
# Target sequence (P15428 whole entry, looked up): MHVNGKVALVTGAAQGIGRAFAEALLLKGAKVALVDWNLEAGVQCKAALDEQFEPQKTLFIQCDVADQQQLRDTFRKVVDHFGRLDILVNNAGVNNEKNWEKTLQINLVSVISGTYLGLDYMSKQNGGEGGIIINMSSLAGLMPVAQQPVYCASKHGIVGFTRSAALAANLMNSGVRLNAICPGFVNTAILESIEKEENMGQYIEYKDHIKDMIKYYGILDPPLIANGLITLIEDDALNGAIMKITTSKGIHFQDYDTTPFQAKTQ
#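 20 nM HPGD preincubated 15 min at room temperature with compound in 50 mM Tris-HCl pH 8, 0.01% Tween 20. Started with 1 mM NAD+ and 30 uM prostaglandin E2; NADH fluorescence (360/450 nm) read 5 times over 30-s intervals, last minus first.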
# Active calls of the source: *; ? = inconclusive. % is set by controls: 0 for no effect and ±100 for the full control effect; potency is the fitted concentration of half-maximal effect. Some of the compounds tested; count on the stated rates, not on these rows.
compound | HPGD block
Cn1c(C(=O)Nc2ccc3c(c2)OCCO3)cc2c(=O)n(C)c3ccccc3c21 | ?
Cc1ccc(NC(=O)CN2CCCCCC2)c(Br)c1 | ?
CCS(=O)(=O)NCc1ccc2c(c1)cc(C)n2C | -17%
COC(=O)[C@@H](NC(=O)NCc1cccc(OC)c1)C(C)C | -12%
CCC(C)OC(=O)C1=C(C)O[C@]23OC(N)=C(C#N)[C@]12C(=O)c1ccccc13 (some centres undefined) | -22%
CCOC(=O)N1N=C(CC)CC1(O)C(F)(F)F (centres undefined) | 2%
COc1ccc(C(=O)N2CCc3cc(OC)c(OC)cc3C2c2cccc([N+](=O)[O-])c2)cc1OC (centres undefined) | -21%
CC(=O)N1CCN(Cc2nc3cc(NS(C)(=O)=O)ccc3n2C)CC1 | -10%
CC1CCN(S(=O)(=O)c2cn(C)c(=O)n(C)c2=O)CC1 | 2%
Cn1c(SCC(=O)Nc2ccc3c(c2)OCO3)nnc1-c1cnccn1 | -2%
O=C(CSc1nnc(COc2ccccc2F)n1-c1ccccc1)NCc1ccco1 | 20µM*
Cc1ccccc1NC(=S)NCC(c1cccnc1)N1CCOCC1 (centres undefined) | -3%
COc1cccc(CS(=O)(=O)c2nnnn2-c2ccccc2)c1 | -15%
N=c1oc2ccccc2cc1-c1nc2ccccc2c(=O)[nH]1 | -14%
COc1ccc(NC(=O)CN2CCN(c3ccc(F)cc3)CC2)cc1Cl | -1%
COC(=O)C(C(=O)OC)C1c2ccccc2C=C(C)N1C(=O)OC (centres undefined) | -7%
COc1cc(C(=O)Oc2ccccc2/C=N/NC(=O)c2ccc(C)cc2)cc(OC)c1OC | -7%
Cc1cccc(C(C)C)c1NC(=O)COC(=O)COc1ccc2c(C)cc(=O)oc2c1 | ?
O=C(COC(=O)CSc1ccc2ccccc2c1)NCc1ccc2c(c1)OCO2 | -28%
COc1cc2c3c(c1)/C(=C1/SC(=S)NC1=O)C(=O)N3C(C)(C)C=C2C | -26%
O=c1c2c3c(sc2nc2n1CCC2)CCC3 | -12%
O=C(O)CCCNS(=O)(=O)c1ccccc1 | -4%
CCOC(=O)C1CCN(c2c(NCCN3CCCCC3C)c(=O)c2=O)CC1 (centres undefined) | -5%
CC(=O)Nc1ccc(S(=O)(=O)n2nc(-c3ccc(C)cc3)nc2N)cc1 | 6.3µM*
CCOC(=O)N1CCN(C(=O)C2CCCN(S(=O)(=O)c3ccccc3)C2)CC1 (centres undefined) | -9%
Cc1ccccc1CS(=O)(=O)c1snnc1C | -2%
Cc1c(NC(=O)c2nn3c(C(F)(F)F)cc(-c4ccccc4)nc3c2Cl)c(=O)n(-c2ccccc2)n1C | -24%
C/C(=C1/C(=O)N(c2ccc([N+](=O)[O-])cc2)N=C1c1ccccc1)N(C)C | -1%
Cc1cc(=O)[nH]c(SCCOc2ccc(OC(C)C)cc2)n1 | 18µM*
Cc1[nH]c2ccccc2c1/C=C/c1nc2ccccc2c(=O)n1-c1ccc([N+](=O)[O-])cc1 | -9%

# New compounds follow:
compound | HPGD block
COc1ccc(N(CC(=O)NN=C2CCCC2)S(=O)(=O)c2ccccc2)cc1 | -5%
COc1ccccc1N1CCN(C(=O)c2ccc3c(Cl)c4c(nc3c2)CCCC4)CC1 | -29%
O=C(N/N=C/c1ccco1)c1ccccc1OCc1ccc(Br)cc1 | -13%
CCCn1c(N)c(C(=O)CSc2nc3ccccc3n2CCC#N)c(=O)n(C)c1=O | -14%
Cc1ccccc1C(=O)N/N=C/c1ccccn1 | -5%
COc1ccc(CNc2ccc(S(N)(=O)=O)cc2)c(OC)c1OC | -16%
CC(C)NS(=O)(=O)c1ccc(CCC(=O)O)cc1 | 0%
CN1CCN(C(=O)c2ccc(N(Cc3ccc(Cl)cc3)S(C)(=O)=O)cc2)CC1 | -7%
O=C(OCc1nc2ccccc2s1)C1CCN(C2=NS(=O)(=O)c3ccccc32)CC1 | -22%
Cc1nnc2sc(SCc3ccc(Cl)cc3)nn2c1=O | -3%
O=C(O)c1cc(Cl)c2ccccc2c1O | ?
CSc1cccc(NC(=O)Nc2ccc(Cl)cc2)c1 | -3%
O=S(=O)(NC1CC1)c1ccc(S(=O)(=O)N2CCCC(c3nc(-c4cccnc4)no3)C2)cc1 (centres undefined) | -12%
O=C1CSC(c2ccccc2)N1c1nnc(C23CC4CC(CC(C4)C2)C3)s1 (centres undefined) | -11%
O=C(c1ccccc1F)N1CCN(S(=O)(=O)c2ccc3c(c2)OCCO3)CC1 | -6%
Cc1cc(C)cc(NS(=O)(=O)c2cc(C(=O)NCc3ccccn3)ccc2Cl)c1 | -1%
O=C(Nc1nnc(COc2ccc(Cl)cc2)s1)c1cccs1 | 25µM*
FC(F)(F)c1nc(Oc2ccccc2)c2ccccc2n1 | -11%
CCn1c(SCC(=O)Nc2ccc3c(c2)OCO3)nnc1-c1ccccc1O | -9%
CCCCOc1ccc(NC(=O)Cn2c(=O)ccc3c(C)cc(C)nc32)cc1 | -1%
CN(C)C/C(Cl)=C(\Cl)c1ccccc1 | -23%
CCCCCCN(C(=O)CCCCCN1C(=O)NC(c2ccc3ccccc3c2)C(C(=O)OCc2ccccc2)=C1C)C(C(=O)NCCCC)c1ccc(OCC(=O)OC)c(C(=O)OC)c1 (centres undefined) | -12%
CC(=O)Oc1ccc2ccccc2c1C(NC(=O)Cc1ccccc1)c1ccccc1Cl (centres undefined) | -10%
CCOC(=O)C(NC(=O)c1ccc(Cl)cc1Cl)(Nc1ccc(C)cc1)C(F)(F)F (centres undefined) | -11%
CC1=C(C(=O)OC(C)C)C(c2cccs2)n2ncnc2N1 (centres undefined) | -6%
O=C(CSc1nc2ccc(Cl)cc2[nH]1)NCCc1ccc(Cl)cc1 | -2%
COc1ccc(-n2c(SCC(=O)Nc3ccc4c(c3)OCO4)nc3c(c2=O)SCC3)cc1 | ?
CC1(C)CC(c2nc(-c3ccc(Cl)cc3)cs2)CCS1 (centres undefined) | -13%
CCN(CC)C(=O)C1CC(=O)OC12CCCCC2 (centres undefined) | -3%
CCOC(=O)c1c(-c2ccc(OC)cc2)csc1NC(=O)CNCc1ccco1 | ?

# Ordered by the number under HPGD block (highest first): three of the compounds above
compound | HPGD block
Cc1nnc2sc(SCc3ccc(Cl)cc3)nn2c1=O | -3%
CC1(C)CC(c2nc(-c3ccc(Cl)cc3)cs2)CCS1 (centres undefined) | -13%
CCCn1c(N)c(C(=O)CSc2nc3ccccc3n2CCC#N)c(=O)n(C)c1=O | -14%

# More compounds.
compound | HPGD block
S=c1[nH]nc(-c2ccc(Cl)cc2Cl)n1Cc1ccccc1 | 16µM*
COc1ccc(NC(=S)NNC(=O)c2ccccc2OC(F)F)cc1 | -18%
CCn1c(SCC(=O)N2CCCC2)nc2c1c(=O)n(C)c(=O)n2C | -5%
Cc1cn([C@@H]2C[C@H](N=[N+]=N)[C@H](CO)O2)c(=O)[nH]c1=O | -6%
COC(=O)NNC(=O)COc1ccc2ccccc2c1Br | 16µM*
Nc1ccccc1C(=O)N/N=C1\C2CN3CCN(C2)CC1(c1ccccc1)C3 | ?
Cc1ccc(SCCN2C(=O)NC(C)(C)C2=O)cc1 | -10%
CC1CCN(S(=O)(=O)c2cccc(-c3nnc(-c4cccnc4)o3)c2)CC1 | -19%
Cn1c(NCc2c[nH]c3ccccc23)nc2ccccc21 | -2%
CCOC(=O)c1ccccc1NC(=O)c1ccc(F)cc1 | -14%
Cc1nc(-c2ccccc2)nc2[nH]ccc(=O)c12 | -20%
COC(=O)Cc1ccc(N(Cc2ccccc2F)S(=O)(=O)c2ccc(Cl)cc2)cc1 | -4%
Cc1ccc(CNC(=O)CCCOc2cc(=O)n(C)c3ccccc23)o1 | -23%
CC(NC(=O)C1CC=CCC1C(=O)O)C1CC2CCC1C2 (centres undefined) | 3%
Cc1[nH]c2ccccc2c1C1=NNC(=Nc2ccc(F)cc2)SC1 | -4%
COc1cccc(-c2nc(CS(=O)(=O)CC(=O)Nc3cccc(C)c3C)c(C)o2)c1 | -8%
CCCN1C(=O)C(O)(CC(=O)c2ccc3c(c2)OCCO3)c2ccccc21 (centres undefined) | -17%
CCCCC(=O)N/N=C/c1ccc(Sc2cccc3cccnc23)o1 | -15%
CC(C)N(Cc1nc(-c2ccc(Cl)cc2)no1)C(=O)C12CC3CC(CC(C3)C1)C2 | -7%
Cc1ccc(N2CC(C(=O)NC3CCSC3=O)CC2=O)cc1 (centres undefined) | -7%
C/C(CCc1ccco1)=N/NC(=O)CCC(=O)Nc1cccc(Cl)c1 | 1%
O=S(=O)(NCc1ccccc1)c1cccc2cccnc12 | -1%
CCN(CC)CCN1C(=O)c2ccccc2NC1c1ccc(C)cc1 (centres undefined) | ?
CC(C)NC(=S)Nc1ccc2cn[nH]c2c1 | -4%
CC(C)N(C=O)C1(C(=O)NC2CCCCC2)CCCCC1 | 1%
ON=C1/C(=N\O)CC2(C/C1=N/O)OCCO2 | -17%
O=C(c1ccncc1)N1CCC[C@@]2(CCN(c3cccc(-c4ccccc4)c3)C2)C1 | -13%
COc1ccc(CN=C2Nc3ccccc3CS2)cc1 | -15%
CCN(CC)C(c1ccc(F)cc1)c1nnnn1C1CCCCC1 (centres undefined) | 5%
O=C(O)c1ccc([N+](=O)[O-])cc1 | -6%

# 5 entries from above, reformatted.
HPGD block,SMILES
-18%,COc1ccc(NC(=S)NNC(=O)c2ccccc2OC(F)F)cc1
-13%,O=C(c1ccncc1)N1CCC[C@@]2(CCN(c3cccc(-c4ccccc4)c3)C2)C1
1%,CC(C)N(C=O)C1(C(=O)NC2CCCCC2)CCCCC1
-20%,Cc1nc(-c2ccccc2)nc2[nH]ccc(=O)c12
-7%,CC(C)N(Cc1nc(-c2ccc(Cl)cc2)no1)C(=O)C12CC3CC(CC(C3)C1)C2

# The list continues:
compound | HPGD block
Cc1ccc(-c2nc3cccnc3s2)cc1NC(=O)C1c2ccccc2Oc2ccccc21 | -14%
CCCC(NS(=O)(=O)c1ccc(Br)cc1)C(=O)O (centres undefined) | -1%
Cc1cc([N+](=O)[O-])nn1Cc1ccc(C(=O)N/N=C/c2ccccc2)cc1 | -11%
O=[N+]([O-])/C=C/c1cn(Cc2ccc(F)cc2)c2ccccc12 | -21%
Clc1ccc(CSc2nnc(/C=C/c3ccccc3)o2)c(Cl)c1 | -25%
CCOC(=O)Cc1nn2c(=O)cc(C)nc2s1 | -3%
C[N+]1(C)CCCC(OC(=O)C(O)(c2ccccc2)c2ccccc2)C1 (centres undefined) | 2%
CCC(=O)N1CCN(CCN=Cc2c(O)n(C3CCCCC3)c(=O)n(C3CCCCC3)c2=O)CC1 | -1%
COc1cc(NC(=O)O[C@@H]2C(=O)c3cc(Br)ccc3O[C@H]2c2ccc3c(c2)OCO3)cc(OC)c1OC | -12%
CC(C)CCNC(=O)C12CN(Cc3ccccc3)CC1C(c1ccc([N+](=O)[O-])cc1)=NO2 (centres undefined) | -22%
O=C(/C=C/c1ccco1)NC(=S)Nc1cccc(-c2nc3ccccc3o2)c1 | -18%
CCc1ccc(Nc2ncccc2C#N)cc1 | ?
O=C(Nc1ccccc1)N(C1=NCCCCS1)c1cccc2ccccc12 | -20%
CNc1nnc(-c2cccc(N(C)C)c2)s1 | -23%
COc1cc(/C=C2\N=C3CCCCCN3C2=O)ccc1O | -28%
COc1ccc(/C=C(\C#N)C(=O)OCC(=O)NCc2ccc(Cl)cc2)cc1 | ?
Cc1cccc(C)c1NC(=O)N1CCC(n2c(=O)[nH]c3ccccc32)CC1 | -14%
Nc1nc(-c2c[nH]c3ccccc23)cs1 | -21%
Cc1ccccc1NC(NC(=O)OCCn1c([N+](=O)[O-])cnc1C)C(Cl)(Cl)Cl (centres undefined) | -17%
Cc1ccc(S(=O)(=O)N2c3ccccc3OCC2C(C)(C)C)cc1 (centres undefined) | -10%
CC(C)(C)c1ccc(NC(=O)COC(=O)c2ccc(NS(=O)(=O)c3ccc(F)c(F)c3)cc2)cc1 | -12%
COc1cccc(/C=N/n2cnnc2)c1OCc1ccccc1 | -18%
C=CCOc1ccc(C2CC(C)=NN2c2ccccc2)cc1 (centres undefined) | -9%
O=C(O)C1CCCCC1C(=O)NCc1ccc(F)cc1 (centres undefined) | -3%
COc1cc(NC(=O)c2ccco2)c(OC)cc1NC(=O)CSc1ncc(-c2ccc(F)cc2)[nH]1 | ?
CCOC(=O)c1sc(SC)c(C(C)=O)c1C | -4%
Cc1nn(-c2ccccc2)cc1/C=N/NS(=O)(=O)c1ccccc1 | ?
CCOC(=O)C(O)(CC(=O)Nc1ccc(Cl)cc1Cl)C(F)(F)F (centres undefined) | -6%
CCCCOC(=O)c1ccc(NC(=O)c2nn(C)cc2Br)cc1 | ?
CC(C)C(=O)Nc1ccc(C(=O)NNC(=O)c2ccco2)cc1 | -9%

# Remaining list, next part:
compound | HPGD block
O=C(CCN1CCOCC1)Nc1ccc2c(c1)N(C(=O)CN1CCOCC1)c1ccccc1CC2 | -5%
COc1ccc(C(=O)Nc2sc(C(=O)N(C)C)c(C)c2C#N)cc1[N+](=O)[O-] | -26%
O=C(Cn1nnc2ccccc2c1=O)NCc1ccco1 | -1%
COc1ccccc1C1/C(=C(/O)c2ccc(C)cc2)C(=O)C(=O)N1CCN1CCOCC1 (centres undefined) | 0%
COC(=O)c1ccc(/C=N/Nc2nc(-c3ccc(C)cc3)cs2)cc1 | 0%
O=C1CC(c2ccc(F)cc2)Cc2nc(NCc3ccco3)ncc21 (centres undefined) | -6%
O=c1cc([O-])[n+]2c3n1CCCN3CCC2 | 1%
